UCH37 inh – human UCH37 deubiquitinating enzyme inhibition; Q9Y5K5; purified proteasome/UCH37, Ub-AMC cleavage fluorescence; inhibition, % (test concentration not listed); 330,000 compounds, 0.33% hits; AID 588478;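 active means mean of two replicates above 20%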;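 further: 0% = compound-free wells with enzyme and 100% = wells lacking proteasome; stock transfer was 100 nL into about 20 µL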
Target sequence (Q9Y5K5 whole entry, looked up): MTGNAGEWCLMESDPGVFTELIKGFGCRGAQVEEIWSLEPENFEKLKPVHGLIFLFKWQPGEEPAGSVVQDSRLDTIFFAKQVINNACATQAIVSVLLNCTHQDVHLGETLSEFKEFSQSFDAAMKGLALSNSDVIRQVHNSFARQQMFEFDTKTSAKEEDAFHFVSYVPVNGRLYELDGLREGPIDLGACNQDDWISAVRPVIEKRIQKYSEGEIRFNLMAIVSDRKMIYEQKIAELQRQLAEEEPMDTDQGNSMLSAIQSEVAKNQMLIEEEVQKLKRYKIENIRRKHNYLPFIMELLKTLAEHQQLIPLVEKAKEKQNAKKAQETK
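Assay system: Proteasome-bound UCH37. Buffer or medium: pH 7.4 Tris-HCl (50 mM) with ovalbumin, ATP-MgCl2, DTT. Incubation: 30 min preincubation with enzyme, 25 min cleavage at room temperature. Measured by: fluorescence, ex 355 nm, em 460 nm. Read-out basis: percent inhibition. Control set: wells without proteasome as full block, compound-free enzyme plus substrate as uninhibited.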
FGF22 binding – shifts melting point of recombinant human FGF22; Q9HCT0; recombinant FGF22 thermal shift, SYPRO orange fluorescence; percent of sucrose octasulfate shift, DMSO zero; calls only at 9.99 µM; 340,000 compounds, 1.5% hits; AID 651658;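 active means melting point raised past a set limit in the mean and every replicate; three in four hits are not shown here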
Target sequence (Q9HCT0 whole entry, looked up): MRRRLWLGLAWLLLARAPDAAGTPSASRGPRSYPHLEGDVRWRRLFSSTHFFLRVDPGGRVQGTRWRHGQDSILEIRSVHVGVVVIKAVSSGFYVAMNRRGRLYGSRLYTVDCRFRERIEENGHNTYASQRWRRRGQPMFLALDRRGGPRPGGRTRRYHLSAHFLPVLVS
AF4-AF9 inh – blocks AF4 peptide binding to human AF9; inhibition, % at 10 µM; 350,000 compounds, 0.47% hits; P42568; AID 651704; AlphaScreen, biotin-AF4 peptide binding to FLAG-AF9;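 active means every replicate reaching a set inhibition limit, whatever the replicate mean, cut at about 25% in these data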;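 further: 0% = plate neutral control median and 100% = total signal loss; the record names both 10 and 1 µM as test concentration; the first replicate is given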
Target sequence (P42568 whole entry, looked up): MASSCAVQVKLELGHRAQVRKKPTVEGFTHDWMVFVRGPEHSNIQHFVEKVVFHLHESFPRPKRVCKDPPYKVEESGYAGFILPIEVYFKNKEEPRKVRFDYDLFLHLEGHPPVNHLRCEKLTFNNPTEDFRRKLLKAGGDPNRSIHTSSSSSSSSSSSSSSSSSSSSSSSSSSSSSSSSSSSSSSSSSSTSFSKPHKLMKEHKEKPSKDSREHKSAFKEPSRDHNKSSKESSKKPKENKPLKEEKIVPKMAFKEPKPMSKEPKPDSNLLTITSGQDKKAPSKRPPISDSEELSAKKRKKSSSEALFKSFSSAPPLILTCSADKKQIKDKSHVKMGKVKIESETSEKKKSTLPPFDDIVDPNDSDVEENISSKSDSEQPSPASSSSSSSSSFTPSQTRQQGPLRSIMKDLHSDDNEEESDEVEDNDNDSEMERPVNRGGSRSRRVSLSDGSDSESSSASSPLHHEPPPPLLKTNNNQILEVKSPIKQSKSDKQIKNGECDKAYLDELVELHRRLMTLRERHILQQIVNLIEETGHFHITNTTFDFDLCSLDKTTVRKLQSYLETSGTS
Bfl-1 A1 inh – inhibitors of the anti-apoptotic protein A1, read as caspase activation; caspase activation, % (test concentration not listed); MEF A1-2A-BIM cells, Caspase-Glo 3/7 luminescence, 3 h; percent of clofoctol response, vehicle zero; 330,000 compounds, 0.066% hits;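 active means over half of replicate activation scores above 10%, or exactly half above 10 with the replicate mean above 10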;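 further: wells of about 30 µL received 50 nL stock; many hits fall short of the cut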
E coli growth – E. coli growth inhibition; Escherichia coli growth, OD600, 23 h; hits give low values; 330,000 compounds, 0.21% hits; AID 1053175; OD600 absorbance (concentration not given with the values);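 active means OD600 absorbance below the run mean of sample wells minus 3.6 SD, in any replicate, cut at about 0.56 in these data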;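 further: stock transfer was 300 nL into about 60 µL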
T cruzi inh – blocks replication of Trypanosoma cruzi; T. cruzi beta-gal in NIH3T3, luminescence, 90 h; inhibition, % (test concentration not listed); 300,000 compounds, 1.4% hits; AID 1885;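 active means mean inhibition across valid replicates above about 55%, limit read from the data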;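 further: signal also drops with host cell toxicity which is not excluded here; 0% = plate median of DMSO wells and 100% = zero luminescence signal; higher percent means less beta-gal luminescence so fewer parasites; stock transfer was 50 nL into about 50 µL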
rRNA inh HTS – selective bacterial rRNA inhibition in E. coli | 350,000 compounds, 1.6% hits | E. coli WT GFP vs humanized-ribosome RFP mutants, fluorescence, 24 h; hits give low values; DMSO median 0, no signal -100 | GFP signal change (wild-type ribosome), % (concentration not given with the values);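 active means significant combined selectivity score with lowered wild-type GFP, culture density cut under 30%, mutant RFP and density less affected; inactive means any of these conditions unmet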; further: one replicate is shown; some compounds called inactive have numbers as strong as hits
Beta apoptosis – beta cell apoptosis inhibition. INS-1E cytokine-induced death, ATP luminescence, 48 h; percent of positive-control rescue, neutral wells zero. protection from apoptosis, % (concentration not given with the values). 300,000 compounds, 0.8% hits. AID 435005;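 active means all replicates at 75% or more, or half of them and the mean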;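 further: 0% = cytokine-treated negative control wells and 100% = positive control rescue; higher means more ATP so stronger rescue from cytokine killing; wells of about 40 µL received 100 nL stock; the first replicate is given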
rRNA inh HTS OD600 – also measured in rRNA inh HTS; calls as there; OD600 change, %; measured here: OD600 growth;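 optical density of the mix in the first replicate; 0 = DMSO median and -100 = no signal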
rRNA inh HTS RFP – also measured in rRNA inh HTS; calls as there; RFP signal change, %; measured here: RFP humanized mutant strains;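 first replicate; 0 = DMSO median and -100 = no signal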
* marks the source's active call; other numbers are inactive results; i = inactive; . = no result given.

structure,UCH37 inh,FGF22 binding,AF4-AF9 inh,Bfl-1 A1 inh,E coli growth,T cruzi inh,rRNA inh HTS,rRNA inh HTS OD600,rRNA inh HTS RFP,Beta apoptosis
COc1cc(NC(=S)N2CCN(S(=O)(=O)c3ccccc3)CC2)cc(OC)c1,1.6,i,-1.3,-0.7,0.71,.,0,-7,3.5,1
COc1ccc(C2C(=O)c3ccccc3C2=O)cc1,0.4,i,3.2,-8.9,0.64,-3,.,.,.,4
O=C(CSc1nccn(-c2ccc(Br)cc2)c1=O)NC1CCCC1,-138,i,-2.1,-1.0,0.7,-8,14,11,0.8,-16
Cc1c(C(=O)NC2CCCC2)oc2ccccc12,1.9,i,-3.0,-0.5,0.71,.,-3,-5,2.6,-3
CCOc1ccc(C(=O)C(C)OC(=O)Cn2[nH]c(=O)c3ccccc3c2=O)cc1 (centres undefined),1.9,i,0.6,1.2,0.69,-3,5,-3,1.7,6
N#Cc1c(SCc2ccccc2)nc(N2CCOCC2)c2c1CCCC2,-0.1,.,.,-0.8,0.74,.,.,.,.,5
COc1ccc(NC(=S)NCCCn2ccnc2)cc1,-2.1,.,.,0.1,0.76,8,.,.,.,0
CCn1c(=O)n(CC)c2cc(NS(=O)(=O)c3ccccc3)ccc21,3.7,i,-0.3,0.6,0.71,-1,-5,3,1.6,-3
COCCN1Cc2cccc(C(=O)NCC3CCN(CC(C)C)C3)c2C1=O (centres undefined),7.4,i,2.7,0.1,0.69,35,1,6,-0.4,-3
C=CCNc1nc(C(=O)OCC(=O)NCc2cccc(Cl)c2)cs1,1.3,i,-1.8,1.3,0.67,.,9,14,1.5,-4
O=S(=O)(Nc1cccc(-c2nc3cccnc3s2)c1)c1ccc2c(c1)CCCC2,0.5,i,-4.2,0.2,0.77,-6,2,-9,1.6,2
Cc1cccc(/C=C/c2onc(C)c2S(=O)(=O)N2CCC(C(=O)N3CCCCC3)CC2)c1,1.3,.,.,0.4,0.69,-18,.,.,.,15
Cc1ccc(-n2[nH]c(C)c(/C=N/Nc3ccc([N+](=O)[O-])cc3[N+](=O)[O-])c2=O)cc1,.,i,20,0.4,.,-5,11,6,3.7,29
COC(=O)c1nn(C23CC4CC(CC(C4)C2)C3)c2c1C(=O)N(c1ccc(Br)cc1)C2=O,-0.7,.,.,0.3,0.72,-20,.,.,.,5
COc1cc2c(cc1OC)C(c1ccc(-c3ccc(Cl)c(Cl)c3)o1)=NCC2,-2.5,.,.,-0.8,0.66,30,.,.,.,24

Following part:
structure,UCH37 inh,FGF22 binding,AF4-AF9 inh,Bfl-1 A1 inh,E coli growth,T cruzi inh,rRNA inh HTS,rRNA inh HTS OD600,rRNA inh HTS RFP,Beta apoptosis
CCN(CC)C(=O)C1CCCN(C(=O)c2cc(COc3ccc4ncccc4c3)on2)C1 (centres undefined),0.5,i,-8.5,0.1,0.65,7,2,2,-1.9,.
CC(C)c1onc(C(=O)Nc2ccc3c(c2)OCO3)c1[N+](=O)[O-],-0.4,.,.,-2.6,0.72,35,.,.,.,8
COc1ccc(S(=O)(=O)N(C)C)cc1NC(=O)Cc1cccs1,1.1,.,-1.3,1.0,0.69,1,4,-2,0.6,-4
CC1=NN(C(N)=S)C(=O)C1N=Nc1ccc(F)cc1 (centres undefined),11,i,-5.0,.,0.69,-22,12,7,-0.6,.
O=C(OCc1nnc(-c2ccccc2)o1)c1cc2ccccc2cc1O,-2.2,i,-4.1,0.8,0.66,-10,11,-4,-1.7,1
O=C(CSc1nc2ccccc2c(=O)n1-c1ccccc1)N1CCN(CCO)CC1,2.9,.,.,-0.1,0.64,-5,.,.,.,0
COc1ccc(Cn2nnnc2C(c2cc3cccc(C)c3[nH]c2=O)N2CCN(C)CC2)cc1 (centres undefined),-16,i,0.8,0.0,0.67,3,7,6,4.0,-6
Cc1ccc(C(=O)N2CCCC(C(=O)c3cc(F)ccc3F)C2)s1 (centres undefined),4.3,i,2.2,0.1,0.71,-4,-20,-13,-2.8,5
CC(C)(C)NC(=O)C1N(c2cccnc2)C(=O)C2C(C(=O)Nc3ccccc3F)C3(C)C=CC21O3 (centres undefined),0.1,.,.,0.0,0.66,-2,.,.,.,-1
CCN(C[C@H]1N[C@@](CC)(C(=O)OC)[C@H]2C(=O)N(C)C(=O)[C@@H]12)S(=O)(=O)c1ccc(-c2ccccc2)cc1,1.3,i,-0.7,0.8,0.67,.,-11,-26,-2.6,8
Cc1ccc(NC(=O)C2CCCN(S(=O)(=O)c3ccc4[nH]c(=O)ccc4c3)C2)c(C)c1 (centres undefined),-11,i,4.1,.,0.74,-3,3,8,-2.4,.
CN1C(=O)/C(=C2\SC(=S)N(C(CCC(=O)O)C(=O)O)C2=O)c2ccccc21 (centres undefined),0.6,.,.,-0.2,0.69,-12,.,.,.,0
CSc1nnc2ccc(-c3cccs3)nn12,-8.6,i,1.0,0.3,0.67,-6,-27,-27,-3.8,-2
CCN(CC)CCNc1nc(-c2ccccc2)c2c(c1C#N)CC(C)(C)OC2,-194,.,.,-0.3,0.66,56*,.,.,.,-5
Cc1c(C(=O)O)nn(-c2ccccc2)c(=O)c1C#N,-4.1,i,-2.4,0.5,0.79,-3,4,10,0.1,-13

(more compounds)
structure,UCH37 inh,FGF22 binding,AF4-AF9 inh,Bfl-1 A1 inh,E coli growth,T cruzi inh,rRNA inh HTS,rRNA inh HTS OD600,rRNA inh HTS RFP,Beta apoptosis
CSCC[C@H](NC(=O)OC(C)(C)C)c1nnc(SCC(=O)Nc2c(C)cccc2C)o1,3.2,.,.,0.5,0.8,.,.,.,.,5
O=C(CSc1nc2ccccc2c(=O)n1-c1ccccc1)N/N=C/C=C/c1ccccc1[N+](=O)[O-],.,i,-0.4,0.9,.,30,4,-3,-2.7,13
COCCNc1cnn(-c2ccccc2)c(=O)c1Cl,3.9,i,-1.3,0.0,0.68,-12,19,12,2.2,1
O=S(=O)(CC(CN1CCCCC1)N1CCCCC1)c1ccc2ccccc2c1 (centres undefined),2.7,i,0.6,.,0.69,71*,12,15,11,.
CCOc1ccc(Cl)cc1S(=O)(=O)n1cnc2cc(C)c(C)cc21,1.1,.,.,0.4,0.74,16,.,.,.,-4
COC(=O)Cn1c(O)c(N=NC(=O)OC)c2ccccc21,4.0,i,1.5,0.3,0.7,-11,10,4,1.4,-4
COc1ccccc1S(=O)(=O)Cc1ccc(C(=O)NC2CCCCCC2)o1,1.0,i,-1.9,-0.8,0.69,3,-4,-8,0.1,3
COc1cc2c(cc1OC)C(Nn1cnnc1)=NC1(CCCC1)C2,0.2,i,-8.3,0.4,0.68,-3,12,-2,3.7,.
CCOC(=O)C1CCN(C(=O)c2c(-c3c(F)cccc3Cl)noc2C)CC1,2.9,.,.,0.2,0.72,-6,.,.,.,-8
O=C1CC(C(=O)NC2CCCCC2)C(c2ccccc2)O1 (centres undefined),1.3,.,.,0.5,0.75,-15,.,.,.,2
COc1ccc(C2=NOC(CN3C(=O)c4ccccc4S3(=O)=O)C2)cc1 (centres undefined),-4.6,.,.,-0.7,0.71,1,.,.,.,-4
Cc1ccc(CN2C(=O)c3ccccc3C2C(=O)NCc2cccnc2)cc1 (centres undefined),-1.3,i,3.2,-0.1,0.67,-2,3,6,-2.6,-7
O=C(NCCc1ccccc1Cl)C1CCC(=O)N(C2CCCCCC2)C1 (centres undefined),-0.7,i,2.0,1.2,0.64,6,-4,-15,-0.1,-4
CC1(c2ccncc2)Nc2ccccc2-c2nc3ccccc3n21 (centres undefined),-42,.,.,-2.6,0.72,8,-12,-9,4.8,8
O=C(O)COc1nsnc1N1CCOCC1,0.3,.,.,-0.1,0.74,-3,.,.,.,-4

3 compounds already listed, arranged by heavy-atom count, rising:
structure,UCH37 inh,FGF22 binding,AF4-AF9 inh,Bfl-1 A1 inh,E coli growth,T cruzi inh,rRNA inh HTS,rRNA inh HTS OD600,rRNA inh HTS RFP,Beta apoptosis
O=C(O)COc1nsnc1N1CCOCC1,0.3,.,.,-0.1,0.74,-3,.,.,.,-4
COC(=O)Cn1c(O)c(N=NC(=O)OC)c2ccccc21,4.0,i,1.5,0.3,0.7,-11,10,4,1.4,-4
COc1ccc(C2=NOC(CN3C(=O)c4ccccc4S3(=O)=O)C2)cc1 (centres undefined),-4.6,.,.,-0.7,0.71,1,.,.,.,-4

Continued.
structure,UCH37 inh,FGF22 binding,AF4-AF9 inh,Bfl-1 A1 inh,E coli growth,T cruzi inh,rRNA inh HTS,rRNA inh HTS OD600,rRNA inh HTS RFP,Beta apoptosis
O=C(COc1ccccc1)N1CCN(S(=O)(=O)Cc2ccccc2)CC1,4.4,i,-42,0.1,0.71,3,3,-2,-0.6,-3
COc1ccc(NC(=O)CSc2nc(N)c3cc4c(nc3n2)CCCC4)cc1,0.3,.,.,-1.6,0.65,-10,.,.,.,7
O=S(=O)(N=C(NS(=O)(=O)c1ccc(Cl)cc1)c1ccccc1)c1ccc(Cl)cc1,3.3,i,-0.7,-1.2,0.68,.,3,-2,-3.0,-6
COc1ccc(-c2nc(Cn3c(SCc4ccc(F)cc4)nc4ccncc43)c(C)o2)cc1OC,-0.8,i,1.7,0.5,0.7,28,0,-11,13,4
CCOC(=O)N1CC=C2C(C#N)=C(N)C(C#N)(C#N)[C@H](c3ccc(OC(C)C)c(OCC)c3)[C@H]2C1,-0.7,.,.,0.4,0.78,18,.,.,.,1
COc1cccc(OC)c1C(=O)N=c1sc2cc(S(C)(=O)=O)ccc2n1C,3.2,i,-1.2,0.8,0.7,8,8,7,-4.2,-2
CCCn1cc(CN2CCC(Oc3ccc(C(=O)N4CCCC4)cc3)CC2)c(C)n1,2.2,i,-1.9,0.0,0.71,-5,7,-1,1.3,1
O=S(=O)(NCc1ccc2c(c1)OCO2)c1cnc[nH]1,0.9,i,-0.8,0.1,0.75,-2,0,6,-2.5,-4
Cn1c(=O)c2c(ncn2CC(=O)OCC(=O)c2ccc(F)c(F)c2)n(C)c1=O,3.8,i,-6.8,0.5,0.69,-6,37,24,4.0,-2
CCC(=O)NS(=O)(=O)c1cccnc1Nc1ccc(Cl)cc1,1.0,.,.,-1.1,0.71,4,.,.,.,.
Cc1cccc(NC(=O)c2cc([N+](=O)[O-])ccc2N2CCCCC2)n1,1.8,i,11,0.3,0.72,26,0,2,1.1,.
CCOC(=O)C1(Cc2cccc(F)c2)CCN(C(=O)c2cnccn2)CC1,-1.4,i,-2.4,-1.7,0.66,-10,1,4,3.2,-4
Cc1c(CCO)c(=O)[nH]n1S(=O)(=O)c1ccc(F)cc1,4.6,i,1.8,1.0,0.7,-4,5,13,1.4,-3
COc1ccc(NS(=O)(=O)c2cc(NC(=O)c3ccccn3)ccc2OC)cc1Br,-0.2,i,1.6,-1.5,0.71,.,-5,-1,18,0
Cc1ccc(-c2nn(CC(=O)NCC3CCCO3)c(=O)c3ccccc23)cc1 (centres undefined),5.4,i,0.8,0.5,0.76,-21,1,7,0.6,-2
CCOc1ccccc1CN1CCNC(=O)C1CC(=O)NC1CCCCC1 (centres undefined),-0.7,i,-14,0.2,0.66,14,5,0,4.7,-5
COc1ccc(C(=O)Nc2ccc(S(=O)(=O)N3CCOCC3)cc2)cc1,4.5,i,3.8,0.3,0.65,0,-23,-23,-3.8,-1
COc1ccccc1NS(=O)(=O)c1cc(NC(=S)NCC2CCCO2)ccc1C (centres undefined),0.6,i,0.2,-0.2,0.66,13,-10,-12,-0.2,-3

Assay outcomes deposited in PubChem by several laboratories.

These rows are one share of the data, so the mix of outcomes need not match the whole.
